PAFAH2 inh – PAFAH2 (human) inhibition | recombinant PAFAH2, FP-rhodamine activity probe, fluorescence polarization | inhibition, % at 3.39 µM | hit rate 0.99% among 340,000;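 active = inhibition above the mean over all tested compounds plus 3 SD, cut at about 30% in these data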;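 note: inhibitors block probe labeling of enzyme so polarization drops; 0% = enzyme with DMSO and 100% = wells lacking PAFAH2 protein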
LYPLA1 counter – counter-screen for PME1 inhibitors: inhibitors of human LYPLA1; inhibition, % at 5.9 µM; hit rate 0.16% among 320,000; O75608; AID 2174; recombinant LYPLA1, FP-Rh probe fluorescence polarization;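 active = inhibition above the mean of all tested compounds plus 3 SD, set per campaign, cut at about 14% in these data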;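 note: inhibitors block serine hydrolase probe labeling of LYPLA1 so polarization falls; 0% = enzyme with DMSO and 100% = wells lacking LYPLA1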
Target sequence (O75608 whole entry, looked up): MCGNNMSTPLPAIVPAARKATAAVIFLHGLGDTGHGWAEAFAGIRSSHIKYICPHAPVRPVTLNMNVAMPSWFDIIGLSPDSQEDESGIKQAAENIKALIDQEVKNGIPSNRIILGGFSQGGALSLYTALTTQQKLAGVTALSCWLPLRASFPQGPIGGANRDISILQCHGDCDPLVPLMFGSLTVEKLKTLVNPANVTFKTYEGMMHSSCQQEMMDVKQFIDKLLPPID
ZTA DNA inh – ZTA (EBV) inhibition in EBNA-1 counter-screen. inhibition, % at 11 µM. ZTA-DNA binding, fluorescence polarization. hit rate 0.15% among 320,000; in the data active = inhibition above about 33%
EBNA-1 inh – blocks EBNA-1 binding to DNA. inhibition, % at 14.8 µM. EBNA-1 DNA binding, fluorescence polarization. AID 1950. hit rate 0.34% among 300,000; in the data active = inhibition above about 28%
GSTO1 inh – counter-screen for RBBP9 inhibitors: inhibitors of human GSTO1; recombinant GSTO1, activity-based probe fluorescence polarization; inhibition, % at 5.96 µM; hit rate 1.1% among 300,000; AID 1974;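 active = inhibition above the campaign mean inhibition plus 3 SD, cut at about 35% in these data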;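 note: 0% = GSTO1-1 with DMSO and 100% = wells lacking GSTO1-1 enzyme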
LYPLA2 inh – blocks human lysophospholipase 2, a PME1 counter-screen | O95372 | recombinant LYPLA2, FP-Rh probe fluorescence polarization | inhibition, % at 5.9 µM | hit rate 0.38% among 320,000 | AID 2177;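 active = inhibition above the screen-wide mean plus 3 SD, limit set per campaign, cut at about 26% in these data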;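 note: 0% = LYPLA2 with DMSO and 100% = wells lacking LYPLA2 enzyme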
PAFAH1B3 FP inh – PAFAH1B3 (human) inhibition | Q15102 | recombinant PAFAH1B3, FP-rhodamine probe, fluorescence polarization | inhibition, % at 3.39 µM | hit rate 0.28% among 340,000 | AID 492972;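 active = inhibition above the screen-wide average of all tested compounds plus 3 SD, cut at about 25% in these data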;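 note: 0% = enzyme with DMSO only and 100% = wells lacking PAFAH1B3 protein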
PAD4 inh – blocks human protein arginine deiminase 4 | inhibition, % at 6.36 µM | recombinant PAD4, RCA probe fluorescence polarization | AID 485272 | hit rate 0.41% among 330,000;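 active = percent inhibition above a cutoff equal to the mean of all tested compounds plus 3 SD, cut at about 15% in these data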;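 note: 0% = PAD4 with RCA probe and DMSO and 100% = probe without PAD4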
* marks the source's active call; other numbers are inactive results; x = not tested or not shown. This is a subset; rates above refer to the full screens.

SMILES | PAFAH2 inh | LYPLA1 counter | ZTA DNA inh | EBNA-1 inh | GSTO1 inh | LYPLA2 inh | PAFAH1B3 FP inh | PAD4 inh
COc1ccc(C2c3c(-c4cc(Cl)c(C)cc4O)n[nH]c3C(=O)N2Cc2cccnc2)cc1OC (configuration not stated) | 7.6 | -7.8 | -9.6 | -1.3 | -9.7 | 1.8 | 11.7 | 2.8
O=C(O/N=C(/c1ccccc1)c1ccncc1)c1ccc(F)cc1 | x | -1.4 | -13.5 | -28.1 | -2.6 | -4.4 | x | -3.5
CN1CCN(S(=O)(=O)c2ccc(NC(=O)Cc3cccs3)cc2)CC1 | -2.6 | 2.3 | 8.6 | -1.3 | 7.4 | 8.5 | 3.1 | -3.9
CC(C)C[C@H](NC(=O)OC(C)(C)C)C(=O)N/N=C/C1=Cc2ccccc2OC1C (some centres not stated) | -5.1 | -0.3 | -11.2 | -10.1 | -0.6 | 0.0 | -7.9 | 0.0
Cc1ccc(S(=O)(=O)Nc2nc3ccccc3nc2Nc2cccc(S(=O)(=O)N3CCCC3)c2)cc1 | 8.7 | -9.2 | 21.8 | -1.6 | -21.4 | -2.2 | 4.5 | -3.5

Quoted from the listing.
For LYPLA2 inh, `CC(C)C[C@H](NC(=O)OC(C)(C)C)C(=O)N/N=C/C1=Cc2ccccc2OC1C` (some centres not stated) is listed with 0.0
For EBNA-1 inh, `CN1CCN(S(=O)(=O)c2ccc(NC(=O)Cc3cccs3)cc2)CC1` is listed with -1.3

An excerpt from above in order of the PAD4 inh value, low to high.
Molecule	PAD4 inh
CN1CCN(S(=O)(=O)c2ccc(NC(=O)Cc3cccs3)cc2)CC1	-3.9
Cc1ccc(S(=O)(=O)Nc2nc3ccccc3nc2Nc2cccc(S(=O)(=O)N3CCCC3)c2)cc1	-3.5
CC(C)C[C@H](NC(=O)OC(C)(C)C)C(=O)N/N=C/C1=Cc2ccccc2OC1C (some centres not stated)	0.0

Assay outcomes as filed in PubChem BioAssay.
